Polio RdRp inh = poliovirus RNA polymerase inhibition; poliovirus polymerase elongation, fluorescence polarization; stronger effect = lower value; actives 0.66% (n = 150,000); % elongation, % (compound at 16.7 µg/mL); P03300; in the data active = % elongation below about 90%; note: some results filed as inactive read as strong as hits
MbtI inh = MbtI salicylate synthase inhibition; AID 493033; inhibition, %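 (about 17 µg/mL by stock and volumes)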; purified MbtI enzyme, fluorescence intensity read-out; actives 0.89% (n = 100,000);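 active = above 50% in both replicates, above 80% if mildly self-fluorescent; inactive = the rest, strongly fluorescent compounds included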;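 note: 0% = mean of negative and 100% = mean of positive controls; one replicate is shown; some compounds called inactive have numbers as strong as hits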
Target sequence (P9WFX0 whole entry, looked up): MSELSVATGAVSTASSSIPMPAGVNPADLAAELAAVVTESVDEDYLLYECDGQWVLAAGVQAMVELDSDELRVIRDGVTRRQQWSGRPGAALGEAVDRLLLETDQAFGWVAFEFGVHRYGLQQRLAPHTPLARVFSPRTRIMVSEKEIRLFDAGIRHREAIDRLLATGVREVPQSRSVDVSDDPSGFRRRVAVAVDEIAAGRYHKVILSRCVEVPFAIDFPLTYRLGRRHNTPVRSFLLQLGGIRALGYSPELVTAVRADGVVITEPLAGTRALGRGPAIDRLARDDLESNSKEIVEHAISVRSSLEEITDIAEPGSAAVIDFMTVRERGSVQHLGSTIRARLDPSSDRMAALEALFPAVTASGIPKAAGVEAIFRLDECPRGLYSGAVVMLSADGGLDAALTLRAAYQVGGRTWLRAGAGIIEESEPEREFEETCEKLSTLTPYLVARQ
MenB inh = blocks the Mycobacterium tuberculosis MenB enzyme. MenB enzyme assay, absorbance read-out; some hits fall short of the stated cut. inhibition, %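 (about 12 µg/mL by stock and volumes)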. actives 0.43% (n = 100,000). AID 540299;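 active = mean of two replicates above 30%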;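 note: 0% = no compound and 100% = wells with inactive enzyme; the first replicate is given; strong numbers were not always called active; inactives centre near -10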
Target sequence (P9WNP5 whole entry, looked up): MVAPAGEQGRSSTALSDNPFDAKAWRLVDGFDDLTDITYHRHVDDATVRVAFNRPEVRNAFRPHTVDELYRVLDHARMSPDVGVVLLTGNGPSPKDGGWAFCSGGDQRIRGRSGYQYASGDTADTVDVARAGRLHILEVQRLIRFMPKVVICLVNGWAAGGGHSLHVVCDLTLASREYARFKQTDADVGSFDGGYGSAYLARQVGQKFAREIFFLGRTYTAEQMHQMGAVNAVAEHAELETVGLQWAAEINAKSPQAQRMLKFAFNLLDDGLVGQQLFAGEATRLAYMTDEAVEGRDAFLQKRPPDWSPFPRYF
Polio RdRp inh intensity = recorded beside Polio RdRp inh, whose call it bears; % elongation; measured here: total intensity read-out; formula for this scale not given here;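 total fluorescence in place of polarization; lower means less elongation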
The depositor's hits bear a star; / = no result given; & = joins results of further samples. Rows were taken by chance, and some 1.7% of all compounds hit somewhere here.

Every second line gives: Polio RdRp inh	Polio RdRp inh intensity	MbtI inh	MenB inh
- COC(=O)COc1ccc2c(=O)c(-c3ccc(Cl)cc3)coc2c1
→ 101	96	-2	-11
- O=C(O)CCCn1nc(C(F)(F)F)c2c1CCCCC2
→ 106	113	/	-17
- COC(=O)C(C)N(C#N)c1nc(N(C)C)nc(N(C)C)n1 (configuration not stated)
→ 102	101	-7	-5
- CCOC(=O)CN1CSC2=C(C#N)C(c3ccc(OC)cc3)CC(=O)N2C1 (configuration not stated)
→ 102	99	80	6
- CCn1c(=NC(=O)C2CC2)sc2c(OC)ccc(OC)c21
→ 106	97	-7	-20
- CC1(C)CC(=O)c2c(nn(-c3ccccc3)c2N)C1
→ 99	94	-8	-2
- O=C(COc1ncnc2c1cnn2-c1ccccc1)N1CCN(S(=O)(=O)c2ccc(Cl)cc2)CC1
→ 107	111	-56	1
- CN(C)S(=O)(=O)NCC1CCCO1 (configuration not stated)
→ 102	103	3	11
- COC(=O)c1cc(C)sc1N
→ 100	99	95*	8
- COc1ccc(-c2nnc(C3CCN(C(=O)c4c(F)cccc4F)CC3)o2)cc1
→ 104	98	16	-50

In the list so far, these have a halogen:
Every second line gives: Polio RdRp inh	Polio RdRp inh intensity	MbtI inh	MenB inh
- COC(=O)COc1ccc2c(=O)c(-c3ccc(Cl)cc3)coc2c1
→ 101	96	-2	-11
- O=C(O)CCCn1nc(C(F)(F)F)c2c1CCCCC2
→ 106	113	/	-17
- O=C(COc1ncnc2c1cnn2-c1ccccc1)N1CCN(S(=O)(=O)c2ccc(Cl)cc2)CC1
→ 107	111	-56	1
- COc1ccc(-c2nnc(C3CCN(C(=O)c4c(F)cccc4F)CC3)o2)cc1
→ 104	98	16	-50

The listing continues:
Every second line gives: Polio RdRp inh	Polio RdRp inh intensity	MbtI inh	MenB inh
- COC(=O)C(C)NC(=O)N1CCC2(CC1)NC(=O)c1ccccc1O2 (configuration not stated)
→ 101	104	-14	-30
- CCc1nn2c(=O)cc(CSc3nnc(N)s3)nc2s1
→ 101	103	12	8
- CCN(c1ccccc1)S(=O)(=O)c1ccc(C(=O)OCC#N)cc1
→ 66*	70*	-1	12
- NC(=O)c1ccc[n+](CCO)c1
→ 103	102	0	-30
- Cc1nc2cc3c(cc2s1)OCO3
→ 105	101	25	13
- Cc1ccc(C)c(N2CCN(C(=O)c3ccc4nc(N5CCOCC5)sc4c3)CC2)c1
→ 101	102	2	-21
- COc1cc2c(cc1OC)CN(C(=O)c1cccc(S(=O)(=O)N3CCCCC3)c1)CC2
→ /	/	-12	-5
- C=C(C)c1cccc(C(C)(C)NC(=O)NNc2nc(C)cc(C)n2)c1
→ 99	93	-5	-16
- CCN(CC(=O)Nc1ccc(S(N)(=O)=O)cc1)CC(=O)Nc1cc(Cl)ccc1C
→ 104	109	-2	-11
- CCCCc1ccc(NC(=O)CC)c(C)c1
→ 100	95	-1	9
- O=c1ccc2ccccc2n1Nc1ccc(Br)cc1
→ 102	99	-2	8
- O=C1CN(C(=O)COc2ccc(Cl)cc2)C2(CCCCC2)C(=O)N1
→ 100	102	2	5
- C=CCn1c(CNc2ccc(C)cc2)nnc1SCC(=O)c1ccccc1
→ 102	104	-2	0
- O=C(Oc1ccc(S(=O)(=O)c2ccc(OC(=O)c3cccs3)cc2)cc1)c1cccs1
→ 102	108	-4	-6
- O=C(CNc1ccncc1)c1c[nH]c2ccccc12
→ 102	162	3	/
- CC(=O)NCCc1ccc(S(=O)(=O)Nc2ccc3ncn(C)c(=O)c3c2)cc1
→ 99	102	80	-41
- C=C(C)C1CCC2(C)OC(=O)N(Cc3ccccc3)C12C (configuration not stated)
→ 106	100	/	-20
- CN(c1ccc(O)cc1)S(=O)(=O)c1ccccc1
→ 99	96	-1	/
- CCS(=O)(=O)N1CCc2cc(C(=O)CSc3nnc(C4CCCCC4)o3)ccc21
→ 107	116	-1	-21
- CCN(CC)CCN1C(=O)c2ccccc2NC1c1ccc2c(c1)OCO2 (configuration not stated)
→ 102	102	90	-20
- Cc1cc(C(=O)NCc2cccs2)cs1
→ 103	103	-5	-22
- O=C(Cc1ccc(Cl)cc1)Nc1ccc(-c2nnc3n2CCCCC3)cc1
→ 103	105	-3	-1
- CN(C(=O)c1cc2nc(-c3ccco3)cc(C(F)(F)F)n2n1)C12CC3CC(CC(C3)C1)C2
→ 101	102	6	15
- CCOc1cc(/C=C/C(=O)O)ccc1OCC(C)C
→ 102	106	-11	/
- CN(C(=O)Nc1ccccc1)C1CCS(=O)(=O)C1 (configuration not stated)
→ 99	103	-2	-45
- COC(=O)c1cccc(OCC(O)CNCCC2=CCCCC2)c1 (configuration not stated)
→ 95	100	9	-1
- N#CC1=C(N)OC2=C(C(=O)CCC2)C1c1c(F)cccc1Cl (configuration not stated)
→ 100	101	-14	-1
- CCOc1ccc(-c2cc(CCCC(=O)NCc3cccc(OC)c3)no2)cc1
→ 103	104	-3	-34
- COc1ccc2ccccc2c1CN1CCN(C(=O)c2ccccc2F)CC1
→ 103	103	-25	-50
- O=C1C2C3c4ccccc4C(c4ccccc43)C2C(=O)N1Cc1ccco1 (configuration not stated)
→ 101	101	-1	23*
- Cc1ccc(C(=O)CSc2ncn(-c3ccccc3)n2)c(C)c1
→ 101	102	19	-6
- O=C(O)C1CCCN(C(=O)c2cccc3ccccc23)C1 (configuration not stated)
→ 100	93	-9	-16
- CCN(C(=O)/C=C/c1ccc(C(F)(F)F)cc1)C1CCS(=O)(=O)C1 (configuration not stated)
→ 100	106	13	-13
- Fc1ccccc1-c1nnc2ccc(C(F)(F)F)cn12
→ 16*	38*	/	14
- CC1CC(=O)C2=C(C1)Nc1ncnn1C2c1ccccc1 (configuration not stated)
→ 100	97	-4	-13
- O=C(NCc1ccccc1)NC(c1ccccc1)c1nnc(-c2ccccc2)o1 (configuration not stated)
→ 99	101	-6	-25
- COc1ccc(C2=CC(c3cccs3)NC(=S)N2)cc1 (configuration not stated)
→ 110	108	/	-25
- Cn1cccc1/C=C1/SC(=S)N(c2ccc(C(=O)O)cc2)C1=O
→ 125	137	39	-43
- CSc1sc(C#N)c2c1C(=O)CC(c1ccccc1)C2 (configuration not stated)
→ 104	105	-2	-9
- Oc1c(Br)cc(Cl)cc1/C=N/c1ccccn1
→ 75*	97*	163	-104
- O=C(O)c1cn(-c2ccc(F)c(F)c2)c2c(F)c(F)c(F)c(F)c2c1=O
→ 99	98	2	-31
- Cc1nnc(SCc2ccc(C#N)cc2)s1
→ 100	99	-6	-19
- CNC(C)c1nc2ccccc2s1 (configuration not stated)
→ 99	103	-2	-7
- CCOC(=O)C1=C(C)Nc2nc3ccccc3n2C1c1ccccc1 (configuration not stated)
→ 101	102	-39	-46
- CCCCC[C@H](O)C/C=C1/C(=O)C=C[C@@H]1C/C=C\CCCC(=O)O
→ 99&99	100&99	3	9
- O=C(COC(=O)c1cc2ccccc2oc1=O)c1ccccc1
→ 100	99	45	-5
- Cc1cccc(/C=C2\CS/C(=C\c3cccc(C)c3)C2=O)c1
→ 101	104	9	-24
- CC(C)N1C(=O)C2C(c3ccco3)NN(Cc3ccccc3)C2C1=O (configuration not stated)
→ 98	100	4	-5
- CC1CN(CC(=O)N(c2ccc(Nc3ccccc3)cc2)C(C)C)CC(C)O1 (configuration not stated)
→ 97	92	-68	-28
- COc1ccccc1NC(=O)C1=C(C)NC2=C(C(=O)CC(C)(C)C2)C1c1ccc(Cl)cc1Cl (configuration not stated)
→ 105	106	/	-40

(cont.)
Every second line gives: Polio RdRp inh	Polio RdRp inh intensity	MbtI inh	MenB inh
- CC(=O)N=C1SC2CS(=O)(=O)CC2N1c1ccc2c(c1)OCO2 (configuration not stated)
→ 106	99	-10	-23
- CCC(O)c1nc2ccccc2n1C (configuration not stated)
→ 103	99	9	-15
- CCCCNc1ccc(C(F)(F)F)cn1
→ 100	102	102	-2
- Cc1cc2c(c(=O)n1C)C(c1ccc(C(C)C)cc1)C(C#N)=C(N)O2 (configuration not stated)
→ 106	98	-5	-46
- CN(C(=O)c1ccc2c(Cl)c3c(nc2c1)CCCC3)C1CCCCC1
→ 101	97	2	-9
- CCOC(=O)Oc1c(Cl)cc2oc(=O)sc2c1Br
→ 112	123	/	-46
- CC(=O)Nc1ccc(-c2ccc(NC(C)=O)cc2)cc1
→ 104	105	-3	7
- O=C(Nc1ccccn1)C1CCCN1S(=O)(=O)c1ccc(Cl)cc1 (configuration not stated)
→ 100	101	-10	-2
- CCn1c(-c2cc(Br)cc(OC)c2O)nc2cc(S(=O)(=O)N(C)C)ccc21
→ 102	113	1	-5
- S=C(c1ccc(Br)cc1)N1CCCC1
→ 103	115	/	-7

Three compounds from above, reduced to MbtI inh, Polio RdRp inh intensity and Polio RdRp inh:
SMILES	MbtI inh	Polio RdRp inh intensity	Polio RdRp inh
O=C(Oc1ccc(S(=O)(=O)c2ccc(OC(=O)c3cccs3)cc2)cc1)c1cccs1	-4	108	102
O=C(CNc1ccncc1)c1c[nH]c2ccccc12	3	162	102
CC(=O)NCCc1ccc(S(=O)(=O)Nc2ccc3ncn(C)c(=O)c3c2)cc1	80	102	99

The results go on:
Every second line gives: Polio RdRp inh	Polio RdRp inh intensity	MbtI inh	MenB inh
- CN1CCN(Nc2ncnc3sc4c(c23)CCCC4)CC1
→ 103	104	-3	-14
- CCc1ccc(C(=O)NCCc2nnc(SC)n2CC)cc1
→ 100	101	0	20
- Nc1nc(NC(=O)CCC(=O)O)nn1-c1ccccc1
→ 102	105	5	30*
- O=C(c1cnn(C(=O)CCN2CCN(c3ccccc3)CC2)c1)c1ccccc1O
→ 98	103	-1	-1
- O=C1NC(=O)C(Nc2cccc3ccccc23)S1 (configuration not stated)
→ 99	99	75	4
- O=C(Nc1cccc(F)c1)c1cc(S(=O)(=O)N2CCCCC2)ccc1F
→ 104	104	-14	-10
- Cc1ccc(SCC(=O)NC(=O)C(C)C)cc1C
→ /	/	12	-30
- COc1nc(C)nc(/N=C\NO)n1
→ 101	97	1	-7
- C=CCNC(=O)C1C2C=CC(C2)C1C(=O)OC(C)C (configuration not stated)
→ 99	101	/	0
- Cc1cc(C)cc(Oc2ccc(C#N)c(C#N)c2)c1
→ 102	103	-5	/
- COc1nc(OC)nc(N2CCN(c3cc(C)ccc3C)CC2)n1
→ 99	102	-9	-3
- Cn1cnnc1SCC(=O)Nc1ccccc1C(=O)Nc1ccc2c(c1)OCO2
→ 101	97	13	8
- CCCNC(=O)C(C)N1Cc2ccccc2C1=O (configuration not stated)
→ 98	102	-13	7
- CC1CCCCC1NC(=O)COn1nnc2ccc(Cl)cc21 (configuration not stated)
→ 99	97	14	0
- O=C(Cn1cnc2c(oc3ccccc32)c1=O)OCc1cc(F)cc2c1OC(c1ccsc1)OC2 (configuration not stated)
→ 104	104	4	-2
- Cc1ccc(-c2csc(NC(=O)C(C)C)c2C(=O)O)cc1
→ 101	102	/	-9
- Cc1cc(C)n(CCCNc2nc(-c3cccnc3)nc3ccccc23)n1
→ 103	94	-34	-17
- COc1ccc(S(=O)(=O)N2CCCC(C(=O)NC(C)C)C2)cc1OC (configuration not stated)
→ 99	99	-4	4
- CCc1nnc(NC(=O)c2nc(-c3ccc(Cl)cc3)n3c2CCCCC3)s1
→ 103	106	-8	-8
- COC(=O)c1cc(=O)c2cc(NC(=O)c3ccc(OC(F)(F)F)cc3)ccc2[nH]1
→ 102	110	-7	0
- Cc1ccc(C)c(OCCn2cc(/C=C3\C(=N)N4N=C(S(C)(=O)=O)SC4=NC3=O)c3ccccc32)c1
→ 102	99	3	-18
- CC(Cc1c[nH]c2ccccc12)NC(N)=O (configuration not stated)
→ 102	102	0	-23
- N#Cc1ccsc1NC(=O)COC(=O)/C=C/c1cn(Cc2ccccc2)nc1-c1cccs1
→ 126	131	79	0
- C=CCN(Cc1cccs1)C(=O)Cn1c(=O)cnc2ccccc21
→ 108	112	8	-14
- CCOC(=O)C1=C(Cn2ccc(C(F)(F)F)n2)NC(=O)NC1c1cc(C)ccc1C (configuration not stated)
→ 99	101	4	-3
- CC1(C)CC(NC(=O)N2c3ccccc3CCc3ccccc32)CC(C)(C)N1
→ 99	107	/	-2
- COc1ccc(/C=C2\C(=O)N(c3ccc(Cl)cc3)C(c3ccc(F)cc3)S2(=O)=O)c(OC)c1 (configuration not stated)
→ 102	103	/	-62
- CC(C)C(NS(=O)(=O)c1ccc2c(c1)Cc1cc(S(=O)(=O)NC(C(=O)O)C(C)C)ccc1-2)C(=O)O (configuration not stated)
→ 101	104	7	-7
- COc1ccc(Cl)cc1N=Cc1sccc1C
→ 105	107	-3	/
- Cc1csc(NC(=O)CSc2nc(C34CC5CC(CC(C5)C3)C4)ccc2C#N)n1
→ 106	104	/	-11
- O=C(/C=C/NCc1ccccc1)c1cccs1
→ 100	101	-3	-29
- Cc1nc(C(F)(F)F)nc(NNC(=O)Nc2ccccc2)c1C
→ 99	102	16	7
- Cc1ccc(S(=O)(=O)N2CCC(C(=O)N/N=C/c3ccccn3)CC2)cc1
→ 103	101	8	-21
- Cc1nn(-c2ccccc2)nc1-c1nnc(-c2ccc(Cl)c(Cl)c2)o1
→ 110	111	11	-8
- NC(=O)COC(=O)C(c1ccccc1)c1ccccc1
→ 105	107	-7	-26
- Cc1ccccc1C(=O)N/N=C1/SCC(=O)N1Cc1ccc2c(c1)OCO2
→ 101	103	10	-30
- Cc1c(CO)[nH]c2ccc(Cl)cc12
→ 102	107	-11	-6
- Cc1nc(CCNC(=O)CC2CCCCC2)cs1
→ 101	104	1	4
- Cc1cc(C)c(C(N)=O)c(N2CCN(c3ccccc3)CC2)n1
→ 105	113	-4	0
